# Screens deposited in PubChem by Fisher Drug Discovery Resource Center.
# NPYLR7 agonist: agonists of mosquito NPYLR7 receptor, primary screen, cell-based, Aedes aegypti, calcium fluorescence, mosquito biting behavior. Aedes aegypti neuropeptide Y-like receptor 7 (NPYLR7). HEK293T NPYLR7/Galpha15, GCaMP6s calcium fluorescence. activation, % at 10 µM. 270,000 tested, 0.15% active. AID 1259423, 2018; in the data active = activation above about 40%;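 also: 0% = vehicle and 100% = reference agonist at the receptor; some compounds past the cut are filed as inactive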
# NPYLR7 agonist max-min: recorded beside NPYLR7 agonist, whose call it bears; activation, %; measured here: Max-Min RFU normalised activation; some inactives read as strong as hits;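 span of the calcium signal over five minutes; 0% = vehicle and 100% = native peptide agonist; compound fluorescence can raise it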
# An asterisk follows results filed as active; & = joins results of further samples. Only part of the results is shown; count on the stated rates, not on these rows.
SMILES,NPYLR7 agonist,NPYLR7 agonist max-min
CCOC(=O)C1CCCN(C(=O)c2cccc(CSc3nc(C)c(C)c(N(C)Cc4ccccc4)n3)c2)C1 (configuration not stated),-3,0
CCCCOCCCNC(=O)c1ccc(-c2cc(-c3cccc4c3OCCO4)[nH]n2)cc1,4,-1
Cc1ccc(C)c(NCC(O)c2ccccc2)c1 (configuration not stated),-2,-6
Cc1ccc2ncn(C3CCN(C(=O)COCc4ccccc4)CC3)c2c1,-7,5
Cc1ccc2nc(C)cc(C(=O)N(Cc3nccn3C)C3CC3)c2c1,0,-2
Cn1cnnc1SCc1nc(-c2cccs2)no1,6,6
CCCCC(=O)Nc1c(C)nc2sccn2c1=O,1,-8
CCOC(=O)c1c(NC(=O)CCl)sc(C)c1CC(C)CC (configuration not stated),-1,-4
COc1ccc(N2CCN(C(c3ccc(C)cc3)C3Sc4nc(C)nn4C3=O)CC2)cc1 (configuration not stated),-1,-5
COc1cc(OC)c(OC)cc1/C=C1N=C(/C=C/c2ccccc2)OC\1=O,-2,-4
c1ccc(-c2nc3c(NCC4CC4)nccc3[nH]2)cc1,-4,-10
Cn1c(CNC(=O)CCC2(Cc3cccs3)CCC(=O)N2)nc2cc(C(F)(F)F)ccc21 (configuration not stated),1,-3
Cc1cc(/C=C(/Cl)c2nc(-c3cccs3)no2)cc(C)c1O,-3,-5
CCCCCCC(=O)Nc1c(-c2cccc(F)c2)nc2ccccn12,-3,3
Clc1cc(Br)ccc1OCc1nnc(/C=C/c2cccs2)o1,2,8
O=C1C2C3C=CC(C3)C2C(=O)N1CCc1ccccc1Cl (configuration not stated),-10,-11
O=C(O)/C=C/c1nc2ccccc2c(=O)[nH]1,1,8
Cc1sc2nc(CN(CC(O)CN3CCOCC3)C3CCCCC3)[nH]c(=O)c2c1C (configuration not stated),-3,14
O=C(c1ccc2cn[nH]c2c1)N1CCC(O)CC1,2,0
COCCNc1oc2c(c1-c1ccc(C)cc1)c(=O)oc1ccc(C)cc12,-4,-7
CCc1nc(CC)n(CC(=O)Nc2ccc(C(C)=O)cc2)n1,1,1
C(=Nc1ncn[nH]1)c1ccccc1,-8,10
O=C(OCC(=O)N1CCCC1)c1ccc([N+](=O)[O-])o1,-7,-9
Cc1cccc(NC(=O)c2ccc3c(c2)OCCO3)n1,0,-1
CCOC(=O)C1CCCCN1CC(=O)N1N=C(c2ccc(C)cc2C)CC1c1ccccc1OC (configuration not stated),7,7

# In the list so far, these contain an aryl methoxy group:
SMILES,NPYLR7 agonist,NPYLR7 agonist max-min
COc1ccc(N2CCN(C(c3ccc(C)cc3)C3Sc4nc(C)nn4C3=O)CC2)cc1 (configuration not stated),-1,-5
COc1cc(OC)c(OC)cc1/C=C1N=C(/C=C/c2ccccc2)OC\1=O,-2,-4
CCOC(=O)C1CCCCN1CC(=O)N1N=C(c2ccc(C)cc2C)CC1c1ccccc1OC (configuration not stated),7,7

# The list goes on.
SMILES,NPYLR7 agonist,NPYLR7 agonist max-min
COC(=O)C(c1ccc(OC)cc1)C1C=CC(NC(=O)/C=C/c2ccccc2Cl)C1 (configuration not stated),21,24
O=C(CN1CCC(n2c(=O)[nH]c3ccccc32)CC1)Nc1ccc2c(c1)CCC2,-11,-20
CN(C)S(=O)(=O)c1ccc(Cl)c(NS(=O)(=O)c2cccc(Cl)c2)c1,-2,-2
O=C1NCCc2c1[nH]c1ccc(Br)cc21,5,3
Cc1ccc(S(=O)(=O)N2CCN(C(=O)NC(C)c3ccc4c(c3)OCCO4)CC2)c(C)c1 (configuration not stated),11,5
CCn1nnc2cc(C(=O)NC3CC4CCC3(C)C4(C)C)ccc21 (configuration not stated),3,3
Cc1ccc(Cn2nc(-c3ccccc3C)ccc2=O)cc1,10,8
CCS(=O)(=O)N1CCN(C(=O)c2cc(-c3cccc(OC)c3)n(-c3ccccc3)c2C)CC1,-13,-15
Cc1csc(NC(=O)c2c[nH]c3c(C(F)(F)F)cccc3c2=O)n1,8,5
CN(Cc1nc2c(s1)CCCC2)C(=O)Cn1nnnc1CN1CCCC1,3&1,0&0
COc1ccc(CNCCC2=CCCCC2)cc1,4,7
Cc1onc(-c2ccccc2)c1CNCC1CC=CCC1 (configuration not stated),8,1
Cc1ccc(-n2nnc3c(N4CCN(C(=O)c5cc6ccccc6o5)CC4)ncnc32)cc1,-13,-21
COC(=O)C1=C(C)NC2=C(C(=O)CCC2)C1c1cccc(Br)c1 (configuration not stated),1,-1
CN(CCNC(=O)C(F)(F)F)C(=O)c1csc(=Nc2ccccc2)n1Cc1ccccc1,11,12
COc1ccc(C)cc1S(=O)(=O)NC1CC2CCC(C1)N2Cc1ccc2c(c1)OCO2 (configuration not stated),2,6
CCc1ccc(CCN(C)CCC(=O)NC)cc1,-1,-6
CC(O)CN(C(=O)Nc1cccnc1)C(C)C (configuration not stated),-6,-5
COc1ccccc1CNC(=O)CN(C)Cc1c(C)nn(C)c1C,1,0
CCC(C)N(Cc1c(-c2ccccc2)noc1N(C)C(C)C)CC(O)COCc1ccco1 (configuration not stated),8,12
Cc1nnc(-c2cc3ccccc3n2CC(=O)c2ccccc2)o1,-5,-3
CCCCc1ccc(N2CC(C)Cn3c2nc2c3c(=O)n(CCOCC)c(=O)n2C)cc1 (configuration not stated),-6,-8
Cc1nnsc1CN(C)C(=O)[C@H](N)Cc1c[nH]c2ccccc12,0,16
CC(C)(C)P(=NC(=S)NN=Cc1ccsc1)(N1CCOCC1)N1CCOCC1,1,1
COCCNc1cc(C)nc2c(-c3ccc(Cl)cc3)c(C(F)(F)F)nn12,1,-7

# One compound at a time, from the list above.
# Results for COC(=O)C(c1ccc(OC)cc1)C1C=CC(NC(=O)/C=C/c2ccccc2Cl)C1 (configuration not stated) → NPYLR7 agonist = 21; NPYLR7 agonist max-min = 24
# Results for CCc1nc(CC)n(CC(=O)Nc2ccc(C(C)=O)cc2)n1 → NPYLR7 agonist = 1; NPYLR7 agonist max-min = 1
# Results for CC(C)(C)P(=NC(=S)NN=Cc1ccsc1)(N1CCOCC1)N1CCOCC1 → NPYLR7 agonist = 1; NPYLR7 agonist max-min = 1

# (further entries)
SMILES,NPYLR7 agonist,NPYLR7 agonist max-min
COc1cccc(NC(=O)c2cccnc2Oc2cccc([N+](=O)[O-])c2)c1,0,-2
CNC(=O)CSc1nnc(N2CCN(C(=O)/C=C/c3ccc4c(c3)OCO4)CC2)s1,-17,-15
CCCCSC(C)C(=O)Nc1ccnc2ccnn12 (configuration not stated),2,0
CN1CCN(c2cc(C(=O)Nc3cnn(C(C)(C)C)c3)ccn2)CC1,-1,-1
Cc1sc2nc(C(C)Sc3nnc(-c4ccco4)n3C)[nH]c(=O)c2c1C (configuration not stated),1,7
O=C(CCN(CCc1ccccc1)c1nc(-c2ccco2)nc2ccccc12)NCc1cccc(C(F)(F)F)c1,15,14
Cc1ccc(-c2nnc(-c3cccc([N+](=O)[O-])c3)o2)cc1,4,10
COC(=O)c1sc(NCc2ccc(N3CCC(O)CC3)c(F)c2)nc1Cl,-1,5
FC(F)(F)c1cnc(N2CCCC2c2ccc3c(c2)OCCCO3)c(Cl)c1 (configuration not stated),-3,-4
Cc1ccc(S(=O)(=O)NCCc2nnc3ccc(SCC(=O)Nc4cccc(C)c4)nn23)cc1,-14,-13
O=C(CC1=CCCCC1)N1CCc2c([nH]c3ccccc23)C1c1ccccn1 (configuration not stated),-5&-2,-8&-5
CC(CCc1ccccc1)NC(=O)C(C1CCCC1)N1CCN(C(=O)Nc2ccc(F)cc2)CC1 (configuration not stated),-2,2
Clc1cnn(C/C=C/c2ccccc2)c1,15,9
Cc1nc(Cl)sc1S(=O)(=O)NCC(C)c1ccccc1 (configuration not stated),8&6,7&6
CSCCC(=O)N1CCC(n2c(=O)oc3ccc(C(C)(C)C)cc32)CC1,-4,9
Cc1ccc(C)c(C(NC(=O)Cc2c(C)[nH][nH]c2=O)c2cccnc2)c1 (configuration not stated),2,0
CNc1nc(-c2cccs2)cc(C(F)(F)F)n1,3,-1
Oc1c(N=Nc2ccc3cccc(O)c3n2)ccc2ccccc12,36,19
Cc1cc(NC(=O)CN2CCN(C(=O)c3ccccc3F)CC2)no1,1,1
O=S(=O)(Nc1cccc(F)c1)c1cnc[nH]1,11,2
CCNC(=O)N(Cc1cc(NC(=O)CC(C)(C)C)ccc1N(C)C)C1CCCCC1,-1,7
Nc1nc2c(O)cccc2s1,3,0
CC(CC(C)(C)O)NCCc1nc(-c2ccccc2)cs1 (configuration not stated),10,8
Cn1cc(CN2CCCC(C(=O)c3cccs3)C2)c(-c2cccc(Cl)c2)n1 (configuration not stated),11&-3,2&-6
Fc1ccc(-n2cccn2)c(CN2CCCC(N3CCc4ccccc4C3)C2)c1 (configuration not stated),3,2

# Other structures follow:
SMILES,NPYLR7 agonist,NPYLR7 agonist max-min
Nc1ccncc1-c1cc(NCc2ccccn2)nc2[nH]ccc12,-1,-2
CC(C)N(C)Cc1nnnn1CC(=O)NCC1CCN(CCc2ccccc2)CC1,13,6
CC(C)Cc1cc(C(=O)N(C)C(C)c2nccs2)n(C)n1 (configuration not stated),8,6
CCCNC(=O)CCc1nc2cc(S(=O)(=O)N3CCCCC3)ccc2n1C,5,9
COc1cccc(-c2nnc(SCCCC(=O)N3CCN(C(=O)CC(C)(C)C)C(C)C3)n2-c2ccc(C)cc2)c1 (configuration not stated),5,7
O=C(O)CCNC(=O)C12CC3CC(CC(C3)C1)C2,0,-2
N#CC1(NC(=O)CSc2nnc(Nc3ccccc3)s2)CCCCC1,6,2
CCC(C)N(Cc1ccncc1)Cc1c2ccccc2nn1C (configuration not stated),0,1
CN(C)S(=O)(=O)c1ccc(SCC(=O)c2c(N)n(C3CC3)c(=O)[nH]c2=O)nc1,2,10
CCOC(=O)C1=C(C)OC(=N)C(C#N)C1c1c(Cl)cccc1Cl (configuration not stated),6,-1
Cc1ccc(C)c(S(=O)(=O)NN=Cc2ccc(C(C)(C)C)cc2)c1,1,-4
COc1cccc(-c2cc(C(=O)N3CCN(c4ccccc4F)CC3)n3nc(C(C)(C)C)cc3n2)c1,3&17,2&18
O=C(COC(=O)C=Cc1cccs1)Nc1c(Cl)cc(Cl)cc1Cl,-6,-10
CCSc1cc(C)c(C#N)c2nc3ccccc3n12,14,7
COc1ccc(CCn2c(-c3cnn(C)c3C)n[nH]c2=O)cc1,0,5
CCCc1[nH]n(-c2ccccc2)c(=O)c1C1=C(N2CCCCC2)C(=O)N(c2cc(C)ccc2OC)C1=O,24,14
O=C(N1CCCCCC1)N1CCN(S(=O)(=O)N2CCOCC2)CC1,-6,-10
CN(CCc1cnn(C)c1)C(=O)c1ccc2oc(Cc3ccc(Cl)cc3)nc2c1,18,4
COc1ccc(-n2c(SCc3ccc(C(=O)N4CCOCC4)cc3)nnc2-c2ccccc2[N+](=O)[O-])cc1,4,12
Cc1ccc(N(CC(=O)N2CCCC2)S(=O)(=O)c2ccc(F)cc2)cc1,6,3
Cc1cc(CNc2ccc(C(=O)NCCC3COc4ccccc4O3)cn2)no1 (configuration not stated),11,12
CNC(=O)CCN(C)Cc1ccc(C(C)=O)cc1,7,7
Cc1nn(CC(C)C)c2sc(C(=O)Nc3ccc4c(c3)C(=O)NC4)cc12,6,2
CN1CCC2(CCC1=O)CCN(c1nccc(N3CCC(O)CC3)n1)CC2,27,22
CC(Sc1nnc2ccc(C(F)(F)F)cn12)C(=O)NC(C)C1CC2CCC1C2 (configuration not stated),-6,-6

# 2 compounds drawn at random from those above, as already listed:
SMILES,NPYLR7 agonist,NPYLR7 agonist max-min
O=C(N1CCCCCC1)N1CCN(S(=O)(=O)N2CCOCC2)CC1,-6,-10
CN(CCc1cnn(C)c1)C(=O)c1ccc2oc(Cc3ccc(Cl)cc3)nc2c1,18,4

# The list continues:
SMILES,NPYLR7 agonist,NPYLR7 agonist max-min
FC(F)(F)c1cc(-c2cccs2)nc(NCc2cccs2)n1,3,1
CN(CC(F)(F)F)C(=O)CN1CCCCC1CCO (configuration not stated),3,-1
O=C(Nc1cccc(OCc2ccccn2)c1)C1CC1,4,3
COc1ccc(CN(C)C(=O)c2cc(C)nn2C)cc1OC,10,13
COCCS(=O)(=O)Nc1nn(-c2ccccc2)cc1C,1,8
COc1cc(OC)cc(C(=O)O/N=C2\CCCc3cc(OC)c(C)cc32)c1,5,4
CCc1c(C)nc(-n2nc(C)cc2NC(=O)c2ccc([N+](=O)[O-])cc2)[nH]c1=O,9,2
CC1(c2ccccc2)OC(=O)C(=Cc2ccc(O)cc2)C(=O)O1 (configuration not stated),4,9
CC(C)CC1CCN(c2ncnc3c2CCNC3)C1 (configuration not stated),4,2
O=C1N(CCc2ccccc2)CCCC1(O)CN1CCCO1 (configuration not stated),21,22
CCOC1(OCC)C(c2cccs2)C(C#N)(C#N)C1(OCC)OCC (configuration not stated),5,10
CC(=O)c1sc(-c2ccc(Cl)cc2)cc1NC(=O)c1c(O)c2ccccc2[nH]c1=O,-8,-14
CC(=O)N1CCN(C(=O)c2cc(-c3ccccc3F)n3nc(C(C)(C)C)cc3n2)CC1,-3,3
Cc1cc(=O)oc2cc(CN3C[C@H](O)[C@@H](N4CCN(C)CC4)C3)ccc12,-2,-5
Oc1c(Cl)cc(Cl)cc1Br,2,4
COc1ccc(CCOC(=O)[C@@H]2CCCN2C(=O)c2c(C)cc(C)c3c2CC(C)(C)C3=O)cc1OC,-13,-18
COc1cccc(OCC(=O)N2CCN(c3ncnc4c3nnn4Cc3ccccc3)CC2)c1,-8,-18
NS(=O)(=O)c1ccc(NN=CC2CCCCC2)c([N+](=O)[O-])c1,-4,-6
CCc1ccc(S(=O)(=O)c2cnc3ccc(C)cc3c2N2CCC3(CC2)OCCO3)cc1,-11,-18
O=C(Cn1cc(COc2ccc(Cl)c(Cl)c2)nn1)NS(=O)(=O)c1ccccc1OC(F)(F)F,0,-1
